Compound activity as filed in PubChem.
MT1-MMP reporter – inhibitors of MT1-MMP promoter transcription, cell-based, luciferase reporter, luminescence (AID 618); MT1-MMP promoter luciferase reporter cells, luminescence; calls from a first round at 10 µM; hits with a dose series show EC50 in µM; 87,000 compounds, 0.62% hits;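 active = over half of the reporter light lost at 10 µM or EC50 under 50 µM; inactive = the rest and hits that failed the dose series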;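 also: actives suppress MT1-MMP promoter-driven transcription so potencies describe inhibitors; HT1080 fibrosarcoma cells; overnight exposure; toxic or luciferase-blocking compounds were not removed from the actives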
WNV NS2B-NS3 inh – WNV NS2B-NS3 proteinase inhibition; WNV NS2B-NS3 protease, fluorogenic substrate Ex360/Em465; hits give low values; AID 577; 65,000 compounds, 0.18% hits; z-score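 (tested at a level between 10 and 100 µM)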;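 active = z-score at -3 or under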;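 also: score is relative to mean and spread of the compound wells of a plate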
Target sequence (P06935 1371-1501 limits assumed): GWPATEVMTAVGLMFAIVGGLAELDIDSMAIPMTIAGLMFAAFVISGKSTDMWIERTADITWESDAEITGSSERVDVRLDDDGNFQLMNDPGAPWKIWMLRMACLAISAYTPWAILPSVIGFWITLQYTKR
Target sequence (P06935 1502-1679 limits assumed): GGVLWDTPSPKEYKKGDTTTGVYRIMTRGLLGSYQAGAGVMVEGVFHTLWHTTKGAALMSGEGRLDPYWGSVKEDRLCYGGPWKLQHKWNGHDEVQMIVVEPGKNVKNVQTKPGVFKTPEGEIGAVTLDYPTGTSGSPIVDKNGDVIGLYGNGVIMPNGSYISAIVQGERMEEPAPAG
Hsc70 ATP site – small molecules displacing fluorescent ligand from Hsc70 – biochemical, fluorescence polarization, primary screen (AID 568); one-dose displacement, % at 20 µM; IC50 in µM for titrated hits; Hsc70 fluorescence polarization, probe displacement; higher % means a stronger effect; strong numbers were not always called active; 83,000 tested, under 10 active;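 active = displacement above 50% without optical interference and an IC50 on retest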;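 also: ATPase domain with a fluorescein-tagged ATP probe; 0% = vehicle and 100% = excess ADP; read after one hour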
Starred values were filed as active, the others as inactive; i = inactive; nt = no result given.

SMILES	MT1-MMP reporter	WNV NS2B-NS3 inh	Hsc70 ATP site
Cc1ccc(C(C)C)c(OCCN2C(=O)NC(C)(C)C2=O)c1	i	nt	-7.6%
O=C(Cc1cccs1)Nc1ccccc1NC(=O)Cc1cccs1	i	-0.2	-5.7%
CC(C)N(C)C1CCN(C(=O)Nc2ccc(Cl)c(Cl)c2)CC1	i	-2	2.0%
CCc1ccc(CCC(=O)Nc2nnc(CC)s2)o1	i	-1.7	-1.0%
N#CC1=C(N)C(C#N)(C#N)C(c2ccncc2)C2CN(C(=O)OCc3ccccc3)CC=C12 (centres undefined)	i	nt	3.4%
O=C(NNC1=C(C(=O)C(F)(F)F)CCC1)c1ccc(Br)cc1	i	nt	1.6%
COC(=O)c1sc(S(=O)(=O)Nc2ccc3cn[nH]c3c2)c(C(=O)OC)c1C	i	-0.7	0.2%
COc1ccc(C)cc1NC(=O)CN1CCN(S(=O)(=O)c2ccc(F)cc2)CC1	i	0.99	0.8%
COc1cc(/C=C2\S/C(=N/S(=O)(=O)c3ccc(C)cc3)NC2=O)c([N+](=O)[O-])cc1OC	i	nt	0.2%
COc1ccccc1NC(=O)N1CCCC1C(=O)Nc1nnc(C(C)C)s1 (centres undefined)	i	0.7	-0.5%
O=C(CCCN1C(=O)CCC1=O)Nc1cccc(C(F)(F)F)c1	i	0.95	3.7%
COCCn1c(SCC(=O)Nc2sccc2C(N)=O)nc2cc(Cl)ccc2c1=O	i	nt	-11%
O=C(NCCO)c1ccc(-c2nnc(N3CCOCC3)c3ccccc23)cc1	i	0.1	-5.0%
CC(C)(C)NC(=O)NC(=O)Cn1cc(C(F)(F)F)ccc1=O	i	-0.45	5.8%
CCC(Sc1nc2ccccc2c(=O)n1CC1CCCO1)C(=O)NCc1cccnc1 (centres undefined)	i	-0.85	3.0%
C=CCN1C(=O)c2oc3ccccc3c(=O)c2C1c1ccc(O)c(OC)c1 (centres undefined)	i	1.9	7.9%
Cc1ccc(C2=NCCNC2=O)c(C)c1	i	-0.81	-9.8%
Cc1ccccc1-n1c(=O)cc(N2CC(C)OC(C)C2)[nH]c1=O (centres undefined)	i	0.47	5.3%
CCCCNC(=O)CSc1nnc(Cc2ccccc2)n1CC	i	nt	-2.2%
COc1cccc(C2CC(c3ccccc3OC)n3ncnc3N2)c1 (centres undefined)	i	-0.91	-1.2%
CCOC(=O)c1cc2c(ccn2C)n1CC(=O)N1CCN(c2ccccc2OC)CC1	i	0.55	81%
CC1(C)C(=O)C2(CCCC2)C(=O)OC1c1ccco1 (centres undefined)	i	-1.6	8.1%
CCCn1cnc2c(c1=O)c1nc3ccccc3nc1n2Cc1ccccc1OC	i	1	2.4%
CCOC(=O)N1CCC(NC(=O)CCc2cn(C)c3ccccc23)CC1	i	1.9	-1.1%
CC(/C=N/NC(=O)c1n[nH]c2c1CCC2)=C\c1ccccc1	i	nt	6.5%
SMILES	MT1-MMP reporter	WNV NS2B-NS3 inh	Hsc70 ATP site
COc1ccc(OC)c(C2/C(=C(\O)c3c(C)nc4ccccn34)C(=O)C(=O)N2CCCN(C)C)c1 (centres undefined)	i	-0.0042	5.9%
COc1cccc(C2C(C#N)=C(N)Oc3c2oc(CO)cc3=O)c1 (centres undefined)	i	nt	1.3%
COc1ccc(CCNC(=O)c2cc(-c3ccccc3)on2)cc1OC	i	-0.13	0.8%
CCCCn1nnnc1SCC(=O)N1CCOCC1	i	nt	6.4%
Cc1ccc(S(=O)(=O)Cn2nnnc2C(c2ccc(F)cc2)N2CCC(C(N)=O)CC2)cc1 (centres undefined)	i	-0.78	-3.7%
COc1ccc(-c2nnc(SCc3ccccc3)n2N)cc1	i	-0.69	2.8%
CCN(CC)C(=O)c1sc(NC(=O)c2ccoc2C)c(C(=O)OC)c1C	i	-0.58	7.5%
COc1ccc(C(c2sc3nc(C)nn3c2O)N2CCCCC2)cc1 (centres undefined)	i	0.99	3.4%
CC1(C)Cc2noc(N)c2C(C)(C)N1OC(=O)c1ccccc1	i	0.28	-4.3%
O=C(CCCn1c(SCC(=O)NC2CCCCC2)nc2ccccc2c1=O)NCC1CCCO1 (centres undefined)	i	-0.46	-2.0%
CCOc1ccc(CC2S/C(=N/c3ccccn3)NC2=O)cc1 (centres undefined)	i	-2.8	-1.0%
CCOC(=O)N1CCN(c2ccc3nnnn3n2)CC1	i	-0.38	-0.7%
COc1ccc(-c2nnn(CC(=O)N(C3CCCC3)C(C)C(=O)NC3CCCC3)n2)cc1OC (centres undefined)	i	1.1	7.7%
CC(=O)c1ccc(-n2c(-c3cc(-c4ccco4)[nH]n3)n[nH]c2=S)cc1	i	nt	1.2%
Cc1cc(C(=O)CSC(C)c2nc3ccccc3c(=O)[nH]2)c(C)n1C (centres undefined)	i	-0.72	-8.5%
CCSC1=C(C#N)C(c2cccs2)C(C(=O)OC)=C(C)N1 (centres undefined)	i	1.1	-1.6%
CCC(Sc1nc2n[nH]c(C)c2c(=N)n1-c1cccc(Cl)c1)C(=O)NCCOC (centres undefined)	i	0.88	-4.0%
O=C(Nc1ccc(S(=O)(=O)N2CCCC2)cc1)c1ccc(CN2CCOCC2)cc1	i	2.1	3.3%
COC(=O)COc1ccc(S(=O)(=O)NCCC2=CCCCC2)cc1	i	-0.55	2.9%
CC(C)CNC(=O)c1cccc(NC(=O)c2ccco2)c1	i	nt	4.2%
COc1ccc(C(N)=O)cc1NC(=O)c1cccc(F)c1	i	1.8	7.3%
CSc1cccc(NS(=O)(=O)c2cccc3nsnc23)c1	i	-0.51	8.9%
COC(=O)c1c(C)oc2ccc(NS(=O)(=O)c3cccs3)cc12	i	-0.54	-2.1%
CCOCCn1c(CN2CCCC(C)C2)nc2c1c(=O)n(C)c(=O)n2C (centres undefined)	i	0.13	-2.3%
CC(C)c1[nH]nc2c1C(C(C)C)C(C#N)=C(N)O2 (centres undefined)	i	0.67	2.7%
SMILES	MT1-MMP reporter	WNV NS2B-NS3 inh	Hsc70 ATP site
O=C(c1n[nH]c(=O)c2ccccc12)N1CCN(c2ccccc2Cl)CC1	i	0.32	0.5%
O=C(NCC1CCCO1)C1CCN(CC2CCCCC2)CC1 (centres undefined)	i	0.8	4.1%
CCOC(=O)Cc1cc(=O)n2[nH]c(-c3ccc(Cl)cc3)cc2n1	i	nt	1.8%
Cc1cc(C)cc(N(CC(=O)NCC2CCCO2)C(=O)CCC(=O)Nc2cc(C)on2)c1 (centres undefined)	i	-0.29	-13%
CN(CC(=O)Nc1ccccc1N1CCOCC1)S(=O)(=O)c1ccc(F)cc1	i	nt	-1.2%
C=CCn1c(N)c(C(=O)Nc2ccccc2)c2nc3ccccc3nc21	i	-0.53	-3.7%
CCCCC(=O)Nc1cc(OC)c(NC(=O)C2CCCCC2)cc1OC	i	nt	-4.0%
O=C(C1CCC1)N1CCC(c2nc3c(nnn3Cc3c(F)cccc3Cl)c(=O)[nH]2)CC1	i	-1.4	-1.3%
CC(C)(C)NC(=O)Cn1cc(C#N)c2cc(Br)ccc21	i	1.1	-3.3%
CC1=C(C(=O)NCc2ccco2)C2(CCC(C)CC2)OC1=O (centres undefined)	i	0.21	0.9%
CCOC(=O)c1cnc(SC)nc1Nc1cccc2ccccc12	i	nt	-1.6%
CCOC(=O)CN1C(=O)C(O)(CC(=O)c2cccc(OC)c2)c2ccccc21 (centres undefined)	i	0.74	-6.7%
O=c1c2ccccc2c(/C=N/c2ncn[nH]2)c(O)n1Cc1ccccc1	i	0.79	-6.3%
O=C1O/C(=C/C(=O)N2CCOCC2)c2ccccc21	i	nt	-0.2%
CCSc1nnc(-c2ccccc2NC(C)=O)c(=O)[nH]1	i	-0.02	-9.9%
CCOc1ccccc1NC(=O)CCCc1nc2ccccc2c(=O)[nH]1	i	0.22	-2.2%
O=C(NCC(=O)N(c1ccc2c(c1)OCCO2)C(C(=O)NC1CCCC1)c1ccco1)c1ccco1 (centres undefined)	i	0.61	-1.7%
CCOC(=O)CNC(=O)c1cn(C)c(=O)c2cc(OC)c(OC)cc12	i	-0.98	7.5%
COc1ccc2c(c1)OC(O)(C(F)(F)C(F)F)CC2=O (centres undefined)	i	1.1	-2.4%
Cn1c(=O)c2ncn(CC(=O)NCCOc3ccccc3)c2n(C)c1=O	i	0.19	-4.0%
COC(=O)c1ccc(NC(=O)CSc2nnc(-c3ccncc3)n2N)cc1	i	-0.39	-1.5%
CC1CCCCN1C(=O)c1cc(F)c(F)cc1Cl (centres undefined)	i	0.51	1.8%
CCCc1cc(=O)[nH]c(SCC(=O)N(C)Cc2ccccc2)n1	i	-0.42	0.4%
O=C(CC(SCCO)c1ccc2c(c1)OCO2)c1ccco1 (centres undefined)	i	-0.17	-3.8%
O=S(=O)(c1ccc(N2CCOCC2)nc1)N1CCOCC1	i	nt	1.7%

Of the compounds above, these have a Cl atom.
SMILES	MT1-MMP reporter	WNV NS2B-NS3 inh	Hsc70 ATP site
CC(C)N(C)C1CCN(C(=O)Nc2ccc(Cl)c(Cl)c2)CC1	i	-2	2.0%
COCCn1c(SCC(=O)Nc2sccc2C(N)=O)nc2cc(Cl)ccc2c1=O	i	nt	-11%
CCC(Sc1nc2n[nH]c(C)c2c(=N)n1-c1cccc(Cl)c1)C(=O)NCCOC (centres undefined)	i	0.88	-4.0%
O=C(c1n[nH]c(=O)c2ccccc12)N1CCN(c2ccccc2Cl)CC1	i	0.32	0.5%
CCOC(=O)Cc1cc(=O)n2[nH]c(-c3ccc(Cl)cc3)cc2n1	i	nt	1.8%
O=C(C1CCC1)N1CCC(c2nc3c(nnn3Cc3c(F)cccc3Cl)c(=O)[nH]2)CC1	i	-1.4	-1.3%
CC1CCCCN1C(=O)c1cc(F)c(F)cc1Cl (centres undefined)	i	0.51	1.8%

Returning to the listing, repeating the three entries before the break.
SMILES	MT1-MMP reporter	WNV NS2B-NS3 inh	Hsc70 ATP site
CCCc1cc(=O)[nH]c(SCC(=O)N(C)Cc2ccccc2)n1	i	-0.42	0.4%
O=C(CC(SCCO)c1ccc2c(c1)OCO2)c1ccco1 (centres undefined)	i	-0.17	-3.8%
O=S(=O)(c1ccc(N2CCOCC2)nc1)N1CCOCC1	i	nt	1.7%
CCn1c(COc2ccccc2C)nnc1SCC(=O)Nc1ccc2c(c1)OCCO2	i	-1.5	-4.3%
Cc1ccc(C)c(CSc2nnc(CCN)o2)c1	i	0.33	4.2%
c1ccc(COc2ccc(CN3CCN(c4ccccn4)CC3)cc2)cc1	i	nt	2.7%
CCOC(=O)C1CCN(C(=O)CN(c2ccc(OC)cc2)S(=O)(=O)c2c(C)nn(C)c2C)CC1	i	1.2	-3.8%
O=C(NCCCN1CCOCC1)c1cc(-c2ccc3c(c2)OCO3)nc2ccccc12	i	0.01	0.7%
CCC(=O)Nc1nnc(Cc2ccccc2)s1	i	0.13	3.4%
CN(CCC#N)CC(=O)Nc1ccc(NC(=O)CN(C)CCC#N)cc1	i	-0.98	-4.7%
COC(=O)C1=CNC=C(C(=O)OC)C1c1ccccc1Cl	i	3.6	-1.3%
CCOC(=O)N1CCC(c2cc(=O)n3[nH]c(C)c(-c4ccc(F)cc4)c3n2)CC1	i	1.4	2.9%
Cn1c(SCC(=O)NCc2ccco2)nnc1-c1ccc(S(=O)(=O)N2CCOCC2)cc1	i	1.5	1.9%
CCOc1ccc(/C(O)=C2/C(=O)C(=O)N(c3cc(C)on3)C2c2ccc(C(=O)OC)cc2)cc1 (centres undefined)	i	0.2	-5.5%
COc1cc2c(cc1OC)C(c1ccc3c(c1)OCO3)C1=C(CC(C)(C)CC1=O)N2 (centres undefined)	i	-0.53	13%
Cc1ccc(-c2nnc(SCC(=O)Nc3nc4c(s3)CCCC4)n2C)cc1	i	2.2	3.1%
N#Cc1c2c(nc(N)c1-c1ccccc1)CCCCC2	i	-1.5	6.9%
Cc1cc(C)c2c(N=CN(C)C)c(C(=O)N3CCN(c4ncccn4)CC3)sc2n1	i	-0.0091	-7.4%
O=S(=O)(N1CCOCC1)N1CCCN(S(=O)(=O)N2CCOCC2)CC1	i	-0.13	-0.5%
Cc1ccc(CCNC(=O)C2CCC(=O)N2C2CCCC2)cc1 (centres undefined)	i	-0.18	-5.8%
CC(=O)Nc1ccc(S(=O)(=O)N2CCN(C)CC2)cc1	i	nt	-0.6%
c1ccc(Oc2ccc(-n3cnnn3)cc2)cc1	i	1.3	-2.3%
O=C(COc1ccccc1)Nc1nc(-c2ccc(S(=O)(=O)N3CCOCC3)cc2)cs1	i	-0.09	-1.7%
Cc1ccc(S(=O)(=O)N(Cc2nccn2C)C(C)C)cc1	i	0.2	-3.1%
Cc1ccccc1N(CC(=O)Nc1ccccc1C(=O)O)S(C)(=O)=O	i	0.11	0.2%
Cc1occc1C(=O)Nc1cccc(Cn2cccn2)c1	i	2.2	4.0%
COc1ccccc1C(=O)Nc1cccc(N(C)S(C)(=O)=O)c1	i	0.13	2.9%
O=C(CSc1nc(O)cc(=O)n1-c1ccccc1)N1CCCCC1	i	0.17	-11%
COc1ccc(CNC(=O)C(c2ccc(C)o2)N(C(=O)c2csnn2)c2ccc(C(C)C)cc2)cc1 (centres undefined)	i	nt	-10%
CC(C)c1nc(SCc2c(F)cccc2Cl)c2c(=O)n(C)c(=O)n(C)c2n1	i	-0.17	0.3%
Cc1cc2c(c(=O)n1C)C(Cc1ccccc1)C(C#N)=C(N)O2 (centres undefined)	i	0.75	3.7%
COc1cc2cc(CN(Cc3nnnn3C3CCCC3)C3CCCC3)c(=O)[nH]c2cc1OC	i	-0.18	-2.9%

Outcome played no part in choosing rows, and some 0.87% of all compounds hit somewhere here.
